# Compound activity from PubChem BioAssay.
# HepG2 viability: qHTS for Inhibitors of TGF-b: Cytotox Counterscreen. HepG2 CAGA-GFP viability, ATP luminescence, 18 h. Potency, µM (highest dose often 46.1 µM), without a hit: at the top dose activity change, negative = cytotoxicity, hits mostly cytotoxic. hit rate 0.76% among 410,000. AID 588856, 2011; further: some results filed as inactive show a strong effect at the top dose
#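 HepG2 CAGA-GFP cells (1000/well, DMEM with 1% FBS) received compound, then TGF-beta at 500 pg/mL final, and were incubated 18 hours at 37 degrees C. Viability was read by CellTiter-Glo luminescence. Media-only wells were set as complete cell-killing and DMSO as no toxicity.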
# ATXN2 expr inh: Primary qHTS for Inhibitors of ATXN expression | hit rate 0.72% among 360,000 | HEK-293 ATXN2-luciferase reporter, luminescence, 24 h | AID 1745845, 2022 | Potency, µM (top dose mostly 57 µM), for inactives: top-dose activity change, negative = inhibition, usual class: inhibitors; further: on the % scale 0 is the no-effect control and ±100 the full control effect; nearly all actives have a fitted effect of over 55% in size
#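 ATXN2-luciferase reporter cells (luciferase flanked by upstream and downstream ATXN2 gene portions) were treated 24 h at 37 °C with compounds at up to 57 uM. SteadyGlo luminescence gave expression; GF-AFC fluorescence gave viability.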
# Nrf2 activator: qHTS of Nrf2 Activators; hit rate 0.31% among 410,000; Potency, µM (top dose mostly 46.1 µM), for the others: top-dose activation, actives largely listed as activators; AID 624171, 2012; AREc32 ARE-luciferase reporter (MCF7-derived line), luminescence, 24 h; further: % of control where 0% means no effect; nearly all actives have a fitted effect of over 65% in size
#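 ARE activation measured as luciferase luminescence (Steady-Glo, 30 min RT) in AREc32_Fluc cells after 24 hr compound exposure at 37 deg C, 5% CO2; cells seeded overnight at 1000/well in OPTI-MEM, 5% FBS.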
# TGFb inhibitor: qHTS for Inhibitors of TGF-b; HepG2 CAGA-GFP TGF-b/SMAD3 reporter, GFP fluorescence, 18 h; TGF-beta stimulated, 500 pg/mL final; Potency, µM (titrated, usually from 46.1 µM), inactives show at the top dose activity, negative = inhibition, usual class: inhibitors; hit rate 1.2% among 410,000; further: on the % scale 0 is the no-effect control and ±100 the full control effect; nearly all actives have a fitted effect of over 65% in size
#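 Cell-based qHTS in HEPG2 carrying a CAGA-GFP Smad reporter; compounds added before 500 pg/mL final TGF-beta, 18 h incubation at 37 degrees C, GFP fluorescence quantified per cell by imaging cytometry.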
# Nrf2 block: Nrf2 qHTS screen for inhibitors | hit rate 2.1% among 360,000 | Potency, µM (titrated, usually from 46 µM), without a hit: at the highest dose activity change, negative = inhibition, most hits filed as inhibitors | A549 ARE-Fluc reporter, luciferase luminescence, 18-24 h | AID 504444, 2011; further: on the % scale 0 is the no-effect control and ±100 the full control effect; nearly all actives have a fitted effect of over 60% in size
#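 Two sequential reads on A549 ARE_Fluc cells exposed to compound for 18-24 h: a CellTiter-Fluor fluorescence read for viability, then a luciferase luminescence read for Nrf2/ARE activity.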
# ATXN viability: Viability Counterscreen for Primary qHTS for Inhibitors of ATXN expression; S2 cells (HEK-293 line with an ATXN2-luciferase reporter) viability, CellTiter-Fluor protease fluorescence, 24 h; Potency, µM (titrated, usually from 56.7 µM), most hits filed as cytotoxic; hit rate 0.49% among 400,000; further: nearly all actives have a fitted effect of over 40% in size
# MCF10A rerep: A quantitative high throughput screen for small molecules that induce DNA re-replication in MCF 10a normal breast cells; MCF 10A DNA re-replication, Hoechst nuclear intensity, 48 h; Potency, µM (series often up to 46.1 µM), inactives show at the top dose activity, positive = re-replication, hits mostly activators; hit rate 2.9% among 350,000; AID 624296, 2012; further: % of control where 0% means no effect; nearly all actives have a fitted effect of over 50% in size
# A549 viability: Nrf2 qHTS screen for inhibitors: counterscreen for cytotoxicity; A549 ARE-Fluc cells, CellTiter-Fluor viability, 18-24 h; Potency, µM (top dose mostly 46 µM), without a hit: at the top dose activity change, negative = cytotoxicity, actives largely listed as inhibitors; hit rate 0.16% among 390,000; further: on the % scale 0 is the no-effect control and ±100 the full control effect
#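 A549 ARE_Fluc cells in 5% FBS OPTI-MEM were exposed to compounds in concentration-response for 18-24 h at 37 deg C. Viability was read by CellTiter-Fluor fluorescence (Ex 405/Em 525) after 30 min, before the luciferase read.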
# * = called active by the depositor; i = inactive; ? = inconclusive; nt = no result given; & = joins results of further samples; ! = not confirmed by another sample; [ ] = another dose, or the depositor's remark. The call rests on the fitted dose curve; in most records, active means well fitted curve in the direction sought with a large enough effect; inconclusive means small, poorly fitted or top-dose-only effect, or another doubt; inactive means no such curve, though single readings can be large; an effect the other way counts as inactive or inconclusive. Potency means the concentration at half of the fitted maximal effect.
# Screens by letter – A = HepG2 viability; B = ATXN2 expr inh; C = Nrf2 activator; D = TGFb inhibitor; E = Nrf2 block; F = ATXN viability; G = MCF10A rerep; H = A549 viability
> COc1ccc(Cl)cc1NC(=O)COC(=O)CCNC(C)=O
  A: 6.0%	B: -13.1%	C: 10.0%	D: 0.2%	E: 2.0%	F: i	G: 2.2%	H: 4.9%
> CC(=O)NS(=O)(=O)c1cccnc1Nc1ccc(Cl)c(Cl)c1
  A: -35.2%	B: -2.7%	C: 0.3%	D: 23.5%	E: -16.1%	F: i	G: ?	H: 2.2%
> CC(=O)N(CCC(c1ccco1)C(C)C)Cc1ccc(OC(C)C)cc1 (stereo unspecified)
  A: -37.0%	B: -27.6%	C: 7.1%	D: -24.1%	E: -28.0%	F: ?	G: ?	H: 9.6%
> COc1ccc(Br)cc1S(=O)(=O)N1CCCC1
  A: 0.7%	B: -4.1%	C: -0.5%	D: 1.7%	E: 0.8%	F: i	G: 3.1%[9.22 µM]	H: 0.6%
> Cc1cc(C)c2c(CC(=O)NCCc3ccccc3)coc2c1
  A: -10.7%	B: -15.9%	C: 0.1%	D: -10.1%	E: -14.5%	F: i	G: 0.8%	H: 9.8%
> COc1ccc(/C=C/C(=O)NC(=S)N2CCN(c3ccccn3)CC2)cc1
  A: -1.6%	B: 6.3%	C: 3.7%	D: -6.3%	E: 3.0%	F: i	G: -3.1%	H: 8.6%
> Cn1ccc2c(-c3ccc(C(=O)O)cc3)cc3c(c21)C1CCC3O1 (stereo unspecified)
  A: -21.5%	B: 15.0%	C: 0.1%	D: -26.5%	E: nt	F: i	G: nt	H: nt
> COc1cc(C)c(Cl)cc1S(=O)(=O)N1CCCC1
  A: -12.8%	B: -10.9%	C: 0.0%	D: -9.3%	E: -13.9%	F: i	G: 4.6%	H: 1.5%
> Cc1cc(C)c(NC(=O)C2CCCN2C)c(C)c1 (stereo unspecified)
  A: 0.5%	B: 2.6%	C: 0.3%	D: 9.6%	E: 29.2%	F: i	G: 1.4%	H: 13.2%
> O=C(c1noc2c1CCc1ccccc1-2)N1CCCc2ccccc21
  A: -5.5%	B: 41.7%[activator]	C: 3.2%	D: -14.2%	E: -12.0%	F: i	G: ?	H: 1.1%
> [O-][n+]1c2cc(C(F)(F)F)ccc2c2n1CCN=C2c1ccc(Cl)cc1
  A: -14.5%	B: 16.6%	C: 8.9%	D: 2.2%	E: 3.9%	F: i	G: ?	H: -2.1%
> CCOC(=O)[C@@H](C)N(C(=O)OC(C)(C)C)S(=O)(=O)N(Cc1ccccc1)[C@H](C(=O)OC)C(C)C
  A: -31.2%&-23.6%	B: -8.3%	C: 4.4%	D: 10µM*!	E: -7.9%	F: ?	G: 3.5%	H: 0.0%
> CC(C)C[C@H](NC(=O)c1nc[nH]c1C(=O)NC1CCNCC1)C(=O)OCc1ccccc1
  A: 1.8%	B: -17.2%	C: 0.7%	D: 3.0%	E: 1.9%	F: i	G: 14.6%	H: -7.2%
> CC1=C(C)CC(C(=O)NC2CCN(C(C)C)CC2)C(C(=O)O)C1 (stereo unspecified)
  A: -24.8%	B: -6.0%	C: 0.2%	D: 3.0%	E: -8.0%	F: i	G: 7.6%	H: 0.2%
> CCCCNC(=O)c1nc(C2CCN(S(=O)(=O)c3c(F)cccc3F)CC2)oc1-c1ccccc1
  A: -26.9%	B: -7.4%	C: -0.1%	D: ?	E: nt	F: i	G: nt	H: nt
> O=C(CSc1nc2ccccc2o1)Nc1nccs1
  A: 4.5%	B: 15.2%[11.3 µM]	C: 3.4%	D: -1.0%	E: -13.4%	F: i	G: 0.0%	H: -0.2%
> COc1ccc(C2SCC(=O)N2c2c(C)n(C)n(-c3ccccc3)c2=O)c(OC)c1 (stereo unspecified)
  A: -24.7%	B: -6.0%	C: -0.9%	D: -14.7%	E: -3.6%	F: i	G: -0.1%	H: -0.8%
> O=C(NC1CC1)c1ccc2c3c(cccc13)CC2
  A: -0.3%	B: 5.1%	C: -0.4%	D: -5.8%	E: 5.9%	F: i	G: -74.7%[inhibitor]	H: -1.5%
> O=C(CNC(=O)c1ccc(Br)o1)NCC1COc2ccccc2O1 (stereo unspecified)
  A: 0.7%	B: nt	C: 0.3%	D: 8.2%	E: 9.1%	F: i	G: -3.3%	H: 4.2%
> O=C(c1ccccc1)N1CCN(c2cc(-c3ccccc3)nc3cc(-c4cccc(Cl)c4)nn23)CC1
  A: 5.9%	B: 13.2%	C: -0.2%	D: 8.6%	E: nt	F: ?	G: nt	H: nt
> Cc1[nH]c2ccccc2c1C(=O)C(=O)N1c2ccccc2CC1C (stereo unspecified)
  A: -38.8%	B: -21.5%	C: -0.2%	D: ?	E: ?	F: ?	G: ?	H: ?
> COC(=O)c1ccc2nc(-c3ccc(C#N)cc3)c(Cc3ccsc3)n2c1
  A: nt	B: 8.2%	C: 5.5%	D: nt	E: nt	F: i	G: nt	H: nt
> CCC(=O)N1C(C(=O)N2CCCC2)CSC1c1ccc(OC)cc1 (stereo unspecified)
  A: 3.6%	B: 3.3%	C: 0.0%	D: -9.1%	E: 5.2%	F: i	G: 6.1%	H: -3.8%
> O=C(O)CN1C(=O)SC(Nc2ccc(C(=O)O)cc2)C1=O (stereo unspecified)
  A: 1.8%	B: 0.1%	C: 0.2%	D: 0.0%	E: 5.1%	F: i	G: 0.4%	H: -1.0%

# Among those listed so far, 2 have an NH in an aromatic ring:
# Screens by letter – A = HepG2 viability; B = ATXN2 expr inh; C = Nrf2 activator; D = TGFb inhibitor; E = Nrf2 block; F = ATXN viability; G = MCF10A rerep; H = A549 viability
> CC(C)C[C@H](NC(=O)c1nc[nH]c1C(=O)NC1CCNCC1)C(=O)OCc1ccccc1
  A: 1.8%	B: -17.2%	C: 0.7%	D: 3.0%	E: 1.9%	F: i	G: 14.6%	H: -7.2%
> Cc1[nH]c2ccccc2c1C(=O)C(=O)N1c2ccccc2CC1C (stereo unspecified)
  A: -38.8%	B: -21.5%	C: -0.2%	D: ?	E: ?	F: ?	G: ?	H: ?

# Structures from the list above that have a furan ring, fused or not, in the order listed:
# Screens by letter – A = HepG2 viability; B = ATXN2 expr inh; C = Nrf2 activator; D = TGFb inhibitor; E = Nrf2 block; F = ATXN viability; G = MCF10A rerep; H = A549 viability
> CC(=O)N(CCC(c1ccco1)C(C)C)Cc1ccc(OC(C)C)cc1 (stereo unspecified)
  A: -37.0%	B: -27.6%	C: 7.1%	D: -24.1%	E: -28.0%	F: ?	G: ?	H: 9.6%
> Cc1cc(C)c2c(CC(=O)NCCc3ccccc3)coc2c1
  A: -10.7%	B: -15.9%	C: 0.1%	D: -10.1%	E: -14.5%	F: i	G: 0.8%	H: 9.8%
> O=C(CNC(=O)c1ccc(Br)o1)NCC1COc2ccccc2O1 (stereo unspecified)
  A: 0.7%	B: nt	C: 0.3%	D: 8.2%	E: 9.1%	F: i	G: -3.3%	H: 4.2%

# Profiles from above. Screens in order: HepG2 viability, ATXN2 expr inh, Nrf2 activator, TGFb inhibitor, Nrf2 block, ATXN viability, MCF10A rerep, A549 viability
# COc1ccc(/C=C/C(=O)NC(=S)N2CCN(c3ccccn3)CC2)cc1 is listed with -1.6%, 6.3%, 3.7%, -6.3%, 3.0%, i, -3.1%, 8.6%
# COc1ccc(Br)cc1S(=O)(=O)N1CCCC1 is listed with 0.7%, -4.1%, -0.5%, 1.7%, 0.8%, i, 3.1%[9.22 µM], 0.6%
# [O-][n+]1c2cc(C(F)(F)F)ccc2c2n1CCN=C2c1ccc(Cl)cc1 is listed with -14.5%, 16.6%, 8.9%, 2.2%, 3.9%, i, ?, -2.1%

# Only part of the results is shown; the hit share may differ from the screen's.
